LANA-H2A inh: blockers of LANA interaction with H2A/H2B – biochemical, FP readout, HTS, primary screen; cell-free LANA-H2A/H2B peptide, fluorescence polarization; inhibition, % (concentration not given with the values); 0.6% of 320,000 active; AID 2629, 2010; in the data active = inhibition mostly above about 10%, no sharp cut-off; inactive = mostly below about 6.7%;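 note: stock transfer was 7.5 nL into about 10 µL; 0% = median of vehicle wells and 100% = median of positive control wells; one replicate is shown; the record names a cut of 25% in any replicate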
Beta cell apopt: inhibitors of cytokine-induced beta cell apoptosis, primary screen, luminescence | protection from apoptosis, % (test concentration not listed) | AID 435005, 2010 | INS-1E cytokine-induced death, ATP luminescence, 48 h; percent of positive-control rescue, neutral wells zero | 0.8% of 300,000 active;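 active = all replicates at 75% or more, or half of them and the mean; inconclusive = half reach 75% but not the mean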;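 note: 0% = cytokine-treated negative control wells and 100% = positive control rescue; higher means more ATP so stronger rescue from cytokine killing; wells of about 40 µL received 100 nL stock; the first replicate is given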
RanGTP-Imp inh: inhibitors of RanGTP-importin-beta interaction, primary screen, biochemical, FRET, CFP-Ran, YFP-importin-beta, homogeneous. cell-free CFP-Ran/YFP-importin-beta FRET ratio. Ran GTPase (GTP-bound) - importin-beta complex. AID 2216, 2009. inhibition, % (no concentration beside the values). 1.1% of 300,000 active;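 active = most replicates above 15%; inconclusive = exactly half above 15%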;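 note: 0% = DMSO wells and 100% = Ran loaded with GDP instead of GTP; wells of about 40 µL received 100 nL stock; the first replicate is given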
B2AR ag: beta2AR agonists driving receptor internalization, primary screen, cell-based, FAP fluorogen, flow cytometry | AID 504454, 2011 | response, % (test concentration not listed) | Beta-2 adrenergic receptor (Homo sapiens), P07550 | 0.43% of 340,000 active | Am2.2-beta2AR cells; reference of the scale not given here;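 active = response above a set limit, near 3 SD of response in nonfluorescent compounds, cut at about 42% in these data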;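 note: stock transfer was 100 nL into about 11 µL; a reference agonist was the positive control; negative values mostly stem from fluorescent compounds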
Target sequence (P07550 whole entry, looked up): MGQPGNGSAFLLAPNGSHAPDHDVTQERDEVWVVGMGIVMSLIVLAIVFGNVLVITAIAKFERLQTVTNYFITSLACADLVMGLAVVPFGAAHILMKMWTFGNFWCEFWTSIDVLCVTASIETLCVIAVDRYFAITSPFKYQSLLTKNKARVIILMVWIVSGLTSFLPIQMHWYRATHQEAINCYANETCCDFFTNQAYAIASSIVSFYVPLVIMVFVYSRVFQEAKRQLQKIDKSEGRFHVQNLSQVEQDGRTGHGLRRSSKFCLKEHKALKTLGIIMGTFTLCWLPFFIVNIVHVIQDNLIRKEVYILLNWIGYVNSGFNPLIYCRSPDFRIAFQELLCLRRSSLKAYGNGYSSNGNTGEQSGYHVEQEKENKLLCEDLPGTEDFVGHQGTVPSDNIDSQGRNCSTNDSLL
UCH37 inh: inhibitors of human UCH37 deubiquitinase, primary screen, biochemical, Ub-AMC cleavage, fluorescence; Ubiquitin carboxyl-terminal hydrolase isozyme L5 (Homo sapiens), Q9Y5K5; purified proteasome/UCH37; inhibition, % (concentration not given with the values); 0.33% of 330,000 active;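 active = mean of two replicates above 20%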;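 note: 0% = compound-free wells with enzyme and 100% = wells lacking proteasome; stock transfer was 100 nL into about 20 µL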
Target sequence (Q9Y5K5 whole entry, looked up): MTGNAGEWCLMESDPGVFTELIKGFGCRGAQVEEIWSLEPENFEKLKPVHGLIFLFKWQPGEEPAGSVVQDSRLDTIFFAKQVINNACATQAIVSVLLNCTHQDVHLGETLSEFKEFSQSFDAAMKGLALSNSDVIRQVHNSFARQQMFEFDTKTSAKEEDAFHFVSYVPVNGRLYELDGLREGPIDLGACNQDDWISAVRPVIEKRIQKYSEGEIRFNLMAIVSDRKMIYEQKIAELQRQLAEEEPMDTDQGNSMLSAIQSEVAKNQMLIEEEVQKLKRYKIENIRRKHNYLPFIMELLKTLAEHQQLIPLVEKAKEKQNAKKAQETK
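Assay system: Proteasome-bound UCH37. Buffer or medium: pH 7.4 Tris-HCl (50 mM) with ovalbumin, ATP-MgCl2, DTT. Incubation: 30 min preincubation with enzyme, 25 min cleavage at room temperature. Measured by: fluorescence, ex 355 nm, em 460 nm. Read-out basis: percent inhibition. Control set: wells without proteasome as full block, compound-free enzyme plus substrate as uninhibited.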
Bfl-1 A1 inh: caspase 3/7 activation in MEF A1-2A-BIM cells, primary screen, A1 inhibitor project, cell-based, luminescence, HTS. Caspase-Glo 3/7 luminescence, 3 h; percent of clofoctol response, vehicle zero. caspase activation, % (concentration not given with the values). 0.066% of 330,000 active;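 active = over half of replicate activation scores above 10%, or exactly half above 10 with the replicate mean above 10; inconclusive = replicate mean below 10 yet half the replicates above 10; inactive = over half of replicates below 10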;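 note: wells of about 30 µL received 50 nL stock; many hits fall short of the cut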
T cruzi repl: inhibitors of intracellular T. cruzi growth, primary screen, luminescence, NIH3T3 host cells; T. cruzi beta-gal in NIH3T3, 90 h; inhibition, % (concentration not given with the values); 1.4% of 300,000 active; AID 1885, 2009;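 active = mean inhibition across valid replicates above about 55%, limit read from the data; inconclusive = mean below that limit but half or more replicates reach it; inactive = mean below it, under half of replicates reach it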;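 note: signal also drops with host cell toxicity which is not excluded here; 0% = plate median of DMSO wells and 100% = zero luminescence signal; higher percent means less beta-gal luminescence so fewer parasites; stock transfer was 50 nL into about 50 µL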
Calb FLC: C. albicans growth inhibition with fluconazole, primary screen, CaCi-2 strain, Alamar Blue fluorescence; C. albicans CaCi-2 (fluconazole-resistant clinical isolate) + fluconazole, 48 h; growth inhibition, % (concentration not given with the values); 0.57% of 300,000 active;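 active = most replicates above 75%; inconclusive = exactly half above 75%; inactive = most below 75%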;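 note: all wells also contain fluconazole at 8 µg/ml as a sub-toxic cotreatment; 0% = median of DMSO wells and 100% = median of geldanamycin control wells; wells of about 8 µL received 7.5 nL stock; the first replicate is given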
An asterisk follows results filed as active; ? = inconclusive; . = not tested or not shown.

SMILES	LANA-H2A inh	Beta cell apopt	RanGTP-Imp inh	B2AR ag	UCH37 inh	Bfl-1 A1 inh	T cruzi repl	Calb FLC
COC(CNC(=O)CCc1c(C)nc2c(-c3ccc(F)cc3)c(C)nn2c1C)OC	-2.5	-4	-1.0	-10	3.0	0.0	8	3
FC(F)(F)c1nc2ccccc2n2c(-c3ccc(Cl)cc3Cl)nnc12	-5.4	3	3.6	5	-7.4	-0.1	-19	1
CCC(=O)Nc1ccc(S(=O)(=O)N2CCc3ccccc3C2)cc1	0.2	-14	2.0	-8	4.2	-0.2	13	0
COc1ccc(/C=N/Nc2ccc([N+](=O)[O-])cc2S(=O)(=O)N2CCN(C)CC2)cc1	-4.5	-1	?	3	.	0.9	-16	7
O=C(CS(=O)(=O)c1cn(Cc2cccc(F)c2)c2ccccc12)N1CCCCC1	5.5	-1	2.0	0	0.6	2.1	0	-4
C/C(=N\N1CCN(C)CC1)c1ccc(OC(F)F)cc1	1.6	0	7.8	-7	.	1.0	3	-12
O=C(COC(=O)COc1cc(Cl)c(Cl)cc1Cl)NC1CC1	1.0	1	.	1	1.2	-0.1	.	.
Cc1cc(NC(=O)CCC(=O)N(c2ccccc2)C(C(=O)NC2CCCC2)c2ccccc2C)no1 (stereo not given)	2.2	0	-2.7	1	2.7	-0.3	8	11
O=S(=O)(CCc1ccncc1)C1Cc2cccc3cccc1c23 (stereo not given)	-4.3	-6	-1.2	3	-1.7	0.6	-3	-19
N#CCOC(=O)c1cc(S(=O)(=O)N2CCCCC2)ccc1N1CCOCC1	-2.0	5	.	-4	5.2	0.4	.	.
O=C(N/N=C/c1ccccc1F)c1csc2c1CCCC2	0.8	-5	1.0	-5	.	-5.7	5	3
Cc1ccc(S(=O)(=O)Nc2cccc3ncccc23)cc1	-3.8	1	-1.5	4	1.8	1.1	-17	-3
CC1(C)N=C2C(=[N+]1[O-])CCC/C2=N\O	2.6	3	2.5	1	.	-0.6	-5	-1
Cc1cccc(N2CCN(C(=O)c3cc4c(=O)[nH]c5ccccc5c4n3C)CC2)c1C	0.0	18	-5.6	3	-0.4	-0.1	30	23
COc1cc(OC)c(C2SCCCS2)cc1OC	-1.9	-10	1.6	-1	1.7	-0.5	-10	0
Cc1ccc(-n2nc3c([n+]2[O-])CCc2c-3no[n+]2[O-])cc1	1.1	30	-2.7	-13	-1.0	-0.4	-74	-10
COCCNC(=O)c1ccccc1NC(=O)c1ccccc1N(C)S(C)(=O)=O	-1.2	1	3.7	13	0.8	-0.4	2	6
O=C(CN1CCOCC1)Nc1ccc(Cl)cc1	1.6	.	4.2	0	3.3	0.1	-2	-3
O=C(NCc1ccncc1)C(=O)NCC1OCCN1S(=O)(=O)c1ccc(Cl)cc1 (stereo not given)	-7.8	0	?	3	-0.5	1.5	-10	4
CCCCC(=O)Nc1ccc(C(=O)Nc2cccnc2)cc1	2.6	2	-0.3	4	0.6	-0.4	-6	8
O=C(O)COc1ccc2occ(C(=O)c3ccccc3)c2c1	-8.9	1	-1.7	12	4.8	-2.6	-2	-9
CC(NCc1cccs1)c1ccccc1 (stereo not given)	-0.6	-2	2.2	-5	-0.5	1.1	17	-5
Cc1ccn2c(NCc3ccccc3)c(-c3cccs3)nc2c1	3.4	-15	-1.8	-3	-178	-2.9	2	25
CC1(C)Cc2c(C#N)c(SCC(=O)O)nc(N3CCOCC3)c2CO1	0.8	5	6.4	-2	2.7	0.8	-9	5
O=C(c1cc(-c2ccc(Cl)cc2)nc2ccccc12)N1CCC1	2.6	0	5.8	-1	-0.1	-3.9	14	.

New compounds follow.
SMILES	LANA-H2A inh	Beta cell apopt	RanGTP-Imp inh	B2AR ag	UCH37 inh	Bfl-1 A1 inh	T cruzi repl	Calb FLC
OC(COCc1ccc(Cl)cc1)CN1CCCCC1 (stereo not given)	2.4	.	3.3	-1	1.8	0.0	8	-1
CC1(C)COC2(OC1)C(=O)N(CN1CCOCC1)c1ccccc12	1.4	2	0.0	7	1.8	0.1	-30	-4
CCCNC(=O)CN1CCC(c2nc3ccccc3[nH]2)CC1	0.1	-3	3.4	-5	6.1	-0.6	-7	1
CCOc1ccc(C(=O)N2CCN(Cc3ccccc3)CC2)cc1OCC	.	.	-1.4	7	0.2	.	11	21
COCCNC(=O)c1ccc(CS(=O)(=O)c2ccccc2C)o1	-1.3	-4	2.6	-5	1.1	0.7	1	-8
Cc1ccc(S(=O)(=O)/N=C(/Nc2cccc(C(=O)O)c2)c2ccccc2)cc1	-12	-3	2.7	5	.	-0.9	6	-1
Cc1cc(C(=O)CCC(=O)N2CCN(c3ccccc3F)CC2)c(C)s1	-4.3	2	1.8	-12	5.6	1.1	-7	17
O=C(O)c1ccc(-n2cccn2)c([N+](=O)[O-])c1	4.2	2	?	2	2.5	0.0	-4	-22
O=C(CN=C1NS(=O)(=O)c2ccccc21)OCC(=O)c1cc(F)ccc1F	3.5	-7	1.4	-7	-2.0	0.1	-16	-1
O=C(O)C1CCN(c2ccc([N+](=O)[O-])cc2[N+](=O)[O-])CC1	-0.3	-4	-1.2	-9	12	-0.3	-7	1
C=CCNC(=S)N/N=C/c1ccc(C)c([N+](=O)[O-])c1	-3.4	-1	.	4	.	-0.7	.	.
COCCn1c(SCC(=O)Nc2sccc2C(N)=O)nnc1-c1ccncc1	1.9	-1	.	12	2.4	-0.4	.	32
Cc1ccc(/C=C2\SC(=S)N(CCCC(=O)Nc3nccs3)C2=O)cc1	-1.5	-17	0.8	-2	.	0.3	-18	-4
CC(C)=CC(=O)OCC(=O)Nc1ccc(F)cc1Cl	1.4	3	-1.6	15	3.9	0.7	24	0
COC(=O)Cc1c(C)nc2nc(-c3ccc(OC)cc3)[nH]n2c1=O	-0.3	-7	0.4	0	.	-1.9	-20	1
Clc1ccc(Cl)c(OCCCCN2CCCCC2)c1	0.1	1	?	3	1.8	0.5	32	-1
Cc1ccc2c(c1)C(c1ccccc1)N(C(=O)c1ccc(F)cc1)CC(=O)N2 (stereo not given)	-6.7	-6	-1.4	-4	1.2	1.9	-9	16
CCCC(NC(=O)CNC(=O)C(C)(C)C)C(=O)O (stereo not given)	0.1	0	0.8	1	1.0	-2.5	5	-18
COc1ccccc1/C=C/C=N/Nc1cccc(C(=O)O)c1	5.9	-10	76*	6	.	-8.5	-10	4
NC(=O)C1(NC(=O)[C@@H]2CC3(CC(c4cccc(NC(=O)[C@@H]5CCC(=O)N5)c4)=NO3)CN2C(=O)c2cnccn2)CC1 (stereo not given in full)	3.4	-2	-1.3	-1	5.4	0.3	-14	-6
c1coc(CNc2c3c(nc4ncnn24)CCCC3)c1	-6.1	-10	-3.0	-3	-1.4	-1.0	-26	2
CCOC(=O)C1(CCCc2ccccc2)CCN(C(=O)CCN2CCCCC2=O)CC1	4.8	2	-1.5	-5	3.7	-0.7	11	-6
CN(c1ccc(OCC(=O)OCC(=O)Nc2ccccc2)cc1)S(=O)(=O)c1ccc(F)cc1	-0.1	-12	4.2	14	4.3	0.2	-33	7
Cn1c(=O)c2[nH]c(N=Nc3ccc(N)cc3N)nc2n(C)c1=O	-2.7	3	23	3	-14	0.5	-7	-5
O=C(Cn1[nH]c(=O)c2ccccc2c1=O)Nc1ccc2c(c1)CCC2	4.0	-4	2.3	7	1.7	-0.4	-12	-20

Going on with the list.
SMILES	LANA-H2A inh	Beta cell apopt	RanGTP-Imp inh	B2AR ag	UCH37 inh	Bfl-1 A1 inh	T cruzi repl	Calb FLC
CCOc1cc(C(c2c(C)[nH][nH]c2=O)c2c(C)[nH][nH]c2=O)cc(Br)c1OC	1.4	-5	0.1	-9	4.1	-0.4	-1	-9
CC(Cl)C(=O)c1c[nH]c2ccccc12 (stereo not given)	-0.5	-8	5.8	1	0.5	0.8	-2	9
O=[N+]([O-])c1ccccc1S(=O)(=O)N1CCN(c2ccccc2)CC1	-0.8	0	5.1	9	5.8	0.5	4	-1
CCn1c(C(O)c2cc(OC)ccc2OC)nc2ccccc21 (stereo not given)	1.1	-8	-2.4	-4	3.7	0.2	0	-17
COc1ccc(C(=O)NCC(=O)OCC(=O)NC2CCCC2)cc1	-5.5	-2	-0.4	3	-0.3	0.2	-12	-3
CC1C(=O)NN=C1C(=O)N/N=C\c1ccc(O)cc1O (stereo not given)	3.6	-6	1.4	7	.	1.0	-2	-2
O=C(Nc1ccccc1)Nc1ccc2c(c1)CCC2	5.1	-7	-5.6	14	1.0	-9.3	18	-19
O=C(CN1CCN(Cc2cccc(Cl)c2)C1=O)NCc1ccccn1	-1.7	0	-2.1	4	3.4	-0.5	-6	-5
CC1=CCC2C(=O)N(c3ccc(S(N)(=O)=O)cc3)C(=O)C2C1 (stereo not given)	3.2	-1	-2.3	-3	0.9	0.4	1	2
COc1cccc(NC(=O)[C@H](C)NC(=O)C2CCN(S(=O)(=O)c3ccc(C)cc3)CC2)c1	-2.6	1	-0.3	-3	2.2	0.0	-6	-14
O=C(COc1ccc(Cl)cc1)NCC(=O)N1CCC2(CC1)NCCc1[nH]cnc12	1.9	1	-7.9	-4	-0.3	1.1	-3	-1
C/C(=N\NC(=O)c1cc(Br)ccc1O)c1ccccn1	-11	105*	1.6	9	.	-11	-9	32
Cc1cc(NC(=O)C2CCCN2C(=O)Nc2cccc(Cl)c2)ccc1-n1cnnn1 (stereo not given)	1.3	7	-0.4	8	6.9	0.1	-1	-33
O=C(CCS(=O)(=O)c1ccc(Cl)cc1)Nc1ccc(F)cc1	1.4	.	-0.2	6	2.8	0.1	-8	11
Cc1cccc(Nc2ncnc(N)c2[N+](=O)[O-])n1	1.7	-4	-0.8	2	9.1	-1.5	-13	11
C/C(=N\NC(=O)c1ccc(C)cc1C)c1ccc2c(c1)OCO2	-3.6	-7	-3.3	1	.	0.4	0	9
O=[N+]([O-])c1ccc(O)c(/C=N/Nc2nc3ccccc3[nH]2)c1	-1.1	99*	2.4	-6	.	-2.1	32	32
COc1ccccc1CNC(=O)C1CCCN1S(=O)(=O)c1cccc2cccnc12 (stereo not given)	-2.9	.	-1.4	-1	4.7	0.4	7	32
O=C(O)COc1ccc(/C=N/n2c(COc3ccccc3)nc3ccccc3c2=O)cc1	4.5	.	0.9	-4	.	-1.2	-8	0
COc1ccc(OC)c(N2Cc3ccccc3C2)c1	0.4	-2	-0.2	10	-0.3	0.6	12	-13
CCCCCCCOc1ccc(C2CC(=O)N(C)C2=O)cc1 (stereo not given)	-2.2	-3	4.1	2	0.2	-0.9	-4	-15
